Source: PubChem BioAssay
ALOX15B inhib: blocks human 15-lipoxygenase 2 activity. O15296. purified 15hLO-2, xylenol orange hydroperoxide absorbance. Potency, µM (highest dose often 57.1 µM), without a hit: at the highest dose activity change, negative = inhibition, hits mostly inhibitors. 110,000 compounds, 0.56% hits; further: potency means the concentration at half of the fitted maximal effect; nearly all actives have a fitted effect of over 60% in size; many of its hits are not listed in these tables
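Screening format was qHTS against 50 nM purified 15hLO-2 in Hepes pH 7.5 with detergent. Activity follows hydroperoxide formation from 45 uM arachidonic acid, measured as 573:405 nm absorbance ratio of the ferric-xylenol orange complex.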
IMPase cell inh: membrane-permeable compound that blocks inositol monophosphatase. AID 901. P97697. 120,000 tested, under 10 active. inhibition (IP1 accumulation), % at 46.1 µM. CHO-M1 cells, IP1 accumulation, HTRF TR-FRET ratio; active means well fitted curve in the direction sought with a large enough effect in the signal ratio, not every such curve was filed as active; inconclusive means small, poorly fitted or top-dose-only effect, or a change in a side signal; inactive means no such curve, though single readings can be large or run the other way; the % refers to the signal ratio;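 further: cells stimulated with carbachol in lithium chloride buffer; plate controls were DMSO basal wells for no effect and reference inhibitor wells for full effect; higher means more IMPase inhibition seen as more IP1 and lower FRET ratio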
Target sequence (P97697 whole entry, looked up): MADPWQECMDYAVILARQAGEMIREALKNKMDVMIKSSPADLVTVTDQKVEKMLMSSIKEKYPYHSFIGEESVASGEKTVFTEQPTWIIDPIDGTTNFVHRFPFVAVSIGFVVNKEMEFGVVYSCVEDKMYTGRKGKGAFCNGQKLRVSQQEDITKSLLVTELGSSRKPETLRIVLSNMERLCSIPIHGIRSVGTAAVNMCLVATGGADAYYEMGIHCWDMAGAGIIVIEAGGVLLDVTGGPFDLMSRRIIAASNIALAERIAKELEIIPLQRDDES
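Seeded CHO-M1 cells were dosed with compound at up to 46 uM, stimulated with carbachol for 30 min, then lysed in IP-One detection reagents. Higher IP1 lowers the TR-FRET signal.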
ALOX12 inhib: 12-hLO (ALOX12) enzyme inhibition | AID 1452 | purified 12-hLO, xylenol orange hydroperoxide absorbance | Potency, µM (series often up to 57.1 µM), without a hit: at the highest dose activity change, negative = inhibition, most hits filed as inhibitors | P18054 | 150,000 compounds, 0.12% hits; further: potency means the concentration at half of the fitted maximal effect; nearly all actives have a fitted effect of over 55% in size; many of its hits are not listed in these tables
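Xylenol orange chromogenic assay: hydroperoxide from 12hLO oxidises Fe(II), giving red-shifted Fe(III)-XO absorbance. Conditions: 150 nM enzyme, 40 uM arachidonic acid, 25 mM Hepes pH 7.0, 0.01% Triton X-100, 30 min, room temperature.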
Active calls of the source: *; u = inconclusive; x = not tested or not shown; & = joins results of further samples. Unless noted, the call rests on the fitted dose curve; in most records, active means well fitted curve in the direction sought with a large enough effect; inconclusive means small, poorly fitted or top-dose-only effect, or another doubt; inactive means no such curve, though single readings can be large; an effect the other way counts as inactive or inconclusive. Unless noted, on the % scale 0 is the no-effect control and ±100 the full control effect.

> O=C(c1ccc(Cl)c(S(=O)(=O)NCc2ccccc2)c1)N1CCN(c2ccccn2)CC1
  ALOX15B inhib = 0% | IMPase cell inh = 2 | ALOX12 inhib = 1%
> COc1ccc(Cc2nc(C(=O)NCc3ccccc3OC)cs2)cc1
  ALOX15B inhib = 9% | IMPase cell inh = -8 | ALOX12 inhib = -6%
> COc1ccc2[nH]c3nc(SCC(=O)NNC(=O)c4ccc(OC)c(OC)c4)nnc3c2c1
  ALOX15B inhib = -14% | IMPase cell inh = 6 | ALOX12 inhib = 9%
> Nc1ccccc1C#CCCCCO
  ALOX15B inhib = -4% | IMPase cell inh = x | ALOX12 inhib = -1%&-2%
> CC1CCc2cccc3c2N1c1cc(C#N)c(C#N)cc1O3 (centres undefined)
  ALOX15B inhib = x | IMPase cell inh = 5 | ALOX12 inhib = 0%
> Cc1nn(Cc2c(Cl)cccc2Cl)c(C)c1NC(=O)c1cn(-c2ccccc2)nc1-c1ccccc1
  ALOX15B inhib = -22% | IMPase cell inh = 8 | ALOX12 inhib = 2%
> N=c1c[n+](N2CCOCC2)[n-]o1
  ALOX15B inhib = 9% | IMPase cell inh = 4 | ALOX12 inhib = 0%&-3%
> COC(=O)[C@@]1(Cc2ccc(F)cc2)[C@H]2c3cc(C(=O)N(C)C)n(Cc4ccc(OC(F)(F)F)cc4)c3C[C@H]2CN1C(=O)c1ccccc1
  ALOX15B inhib = 2% | IMPase cell inh = x | ALOX12 inhib = -4%&-12%
> CN(C(=O)CSc1ncccc1C(=O)O)c1ccccc1
  ALOX15B inhib = -1% | IMPase cell inh = 5 | ALOX12 inhib = -2%
> COc1ccccc1-c1nnc2n1N=C(c1ccc(O)c(O)c1)CS2
  ALOX15B inhib = -27% | IMPase cell inh = 5 | ALOX12 inhib = u
> CCOC(=O)c1sc(-c2ccc(Br)cc2)cc1N
  ALOX15B inhib = -5% | IMPase cell inh = -3 | ALOX12 inhib = 0%
> Cc1sc(NC(=O)C2CCCCC2C(=O)O)c(C(N)=O)c1-c1ccc(C(C)(C)C)cc1 (centres undefined)
  ALOX15B inhib = u | IMPase cell inh = -8 | ALOX12 inhib = -2%
> CCOC(=O)C1=C(C)N(CC(C)C)C(=O)/C1=C\c1ccc(OCC(=O)Nc2ccccc2)cc1
  ALOX15B inhib = -25% | IMPase cell inh = 17 | ALOX12 inhib = -4%
> CCS(=O)(=O)N1CCC(C(=O)NCCc2ccccc2)CC1
  ALOX15B inhib = -1% | IMPase cell inh = 8 | ALOX12 inhib = 2%
> FC(F)(F)c1cccc(Oc2nc(-c3ccccc3)nnc2C(F)(F)F)c1
  ALOX15B inhib = 4% | IMPase cell inh = 1 | ALOX12 inhib = 8%

Nine structures out of the list, sorted by heavy-atom count, lowest first.
> CN(C(=O)CSc1ncccc1C(=O)O)c1ccccc1
  ALOX15B inhib = -1% | IMPase cell inh = 5 | ALOX12 inhib = -2%
> COc1ccc(Cc2nc(C(=O)NCc3ccccc3OC)cs2)cc1
  ALOX15B inhib = 9% | IMPase cell inh = -8 | ALOX12 inhib = -6%
> FC(F)(F)c1cccc(Oc2nc(-c3ccccc3)nnc2C(F)(F)F)c1
  ALOX15B inhib = 4% | IMPase cell inh = 1 | ALOX12 inhib = 8%
> Cc1sc(NC(=O)C2CCCCC2C(=O)O)c(C(N)=O)c1-c1ccc(C(C)(C)C)cc1 (centres undefined)
  ALOX15B inhib = u | IMPase cell inh = -8 | ALOX12 inhib = -2%
> O=C(c1ccc(Cl)c(S(=O)(=O)NCc2ccccc2)c1)N1CCN(c2ccccn2)CC1
  ALOX15B inhib = 0% | IMPase cell inh = 2 | ALOX12 inhib = 1%
> COc1ccc2[nH]c3nc(SCC(=O)NNC(=O)c4ccc(OC)c(OC)c4)nnc3c2c1
  ALOX15B inhib = -14% | IMPase cell inh = 6 | ALOX12 inhib = 9%
> CCOC(=O)C1=C(C)N(CC(C)C)C(=O)/C1=C\c1ccc(OCC(=O)Nc2ccccc2)cc1
  ALOX15B inhib = -25% | IMPase cell inh = 17 | ALOX12 inhib = -4%
> Cc1nn(Cc2c(Cl)cccc2Cl)c(C)c1NC(=O)c1cn(-c2ccccc2)nc1-c1ccccc1
  ALOX15B inhib = -22% | IMPase cell inh = 8 | ALOX12 inhib = 2%
> COC(=O)[C@@]1(Cc2ccc(F)cc2)[C@H]2c3cc(C(=O)N(C)C)n(Cc4ccc(OC(F)(F)F)cc4)c3C[C@H]2CN1C(=O)c1ccccc1
  ALOX15B inhib = 2% | IMPase cell inh = x | ALOX12 inhib = -4%&-12%

These rows are one share of the data; rates above refer to the full screens.
